Screening results from PubChem.
PrP UTR inh: suppresses PrP 5' UTR mRNA reporter expression. cell-based PrP 5' UTR mRNA reporter, plate reader. inhibition, % (no concentration beside the values). 0.35% of 340,000 active. AID 488862;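 active means every replicate at 50% or more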;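 further: 0 = median of the neutral control wells; tested in H4 reporter cells; numbers are from one replicate; inactives centre near -14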
Mtb hypoxia rep: reduces hypoxia-regulated biosensor signal in M. tuberculosis; M. tuberculosis hypoxia-regulated fluorescent reporter, fluorescence; fluorescence inhibition, % (no concentration beside the values); 0.1% of 300,000 active;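 active means 35 to 45% if threefold the growth effect, above 45% if 1.5-fold the growth effect; inactive means the rest, general growth blockers included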;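 further: wells of about 50 µL received 100 nL stock; 0% = vehicle wells and 100% = reference inhibitor wells; whole bacteria with a GFP reporter of the hypoxia response; strong numbers were not always called active; many hits fall short of the cut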
Autofluor counter: compound fluorescence in toxin protease inhibitor counterscreen; AID 624483; fluorescence intensity (concentration not given with the values); 3.1% of 360,000 active; compound autofluorescence counterscreen, microsphere flow cytometry; stronger effect = higher value;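 active means at least 3 SD above the mean of all compounds, about 16000 in these data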;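 further: 100 nL of 1 mM stock went into each well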
BJeLR viability: BJeLR cell viability loss. BJeLR (HRASV12) viability, CellTiter-Glo ATP luminescence, 48 h; reference of the scale not given here. inhibition, % (concentration not given with the values). 0.17% of 300,000 active. AID 1554;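 active means replicate mean above 50%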;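 further: 50 nL library stock added to about 25 µL; numbers are from one replicate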
RN4220 kill: kills Staphylococcus aureus RN4220; inhibition, % (concentration not given with the values); S. aureus RN4220 growth, OD600, 16 h; AID 1259311; 0.33% of 330,000 active;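 active means z-score of -3 or lower and OD600 up to 0.18 on both plates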;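 further: plate controls were untreated cells for no effect and reference antibiotic for full effect; stock transfer was 100 nL into about 80 µL; one replicate is shown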
Sa ugtP lethal: kills S. aureus RN4220 lacking UgtP. S. aureus RN4220 ugtP deletion, OD600 growth, 16 h; some inactives read as strong as hits. growth inhibition, % (concentration not given with the values). 0.54% of 330,000 active;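 active means z-score under -3 and OD600 up to 0.15 on both plates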;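 further: plate controls were untreated wells for no effect and antibiotic for full effect; wells of about 80 µL received 100 nL stock; the first replicate is given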
Mtb hypoxia rep growth: also measured in Mtb hypoxia rep; calls as there; growth inhibition, %; measured here: M. tuberculosis growth (absorbance);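 0% = vehicle and 100% = reference antibiotic; read after six days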
* marks the source's active call; other numbers are inactive results; / = no result given; & = joins results of further samples.

Values in the order: RN4220 kill	Sa ugtP lethal	PrP UTR inh	Autofluor counter	Mtb hypoxia rep	Mtb hypoxia rep growth	BJeLR viability
O=C(CSc1nccc(=O)[nH]1)Nc1ccc(N2CCOCC2)c(Cl)c1
    5.5	16	-30	3802	3	3	-5
CCOC(=O)C1CCCN(c2c(Nc3cccc(C)c3)c(=O)c2=O)C1 (stereo unspecified)
    2.3	3	-18	6143	7	4	-5
O=[N+]([O-])c1nn(-c2ccc3c(c2)OCCO3)n(O)c1=NC1CCN(Cc2ccccc2)CC1
    18	12	-19	2621	5	8	8
CCOc1ccccc1NC(=O)C(C)SCc1ccccc1 (stereo unspecified)
    3.2	10	-18	4265	-1	-3	9
CC1=C(C(=O)OCC(C)C)C(c2cccc(F)c2)N2C(=O)C(C)SC2=N1 (stereo unspecified)
    1.8	-1	-8	3235	2	0	-12
Cc1ccc(-c2cc(C(=O)NC3CCCCC3)no2)cc1
    3.0	-1	-47	3789	5	-1	0
CSc1nc2ccc(C)cc2c(=O)n1-c1cccnc1
    2.6	4	-12	5967	10	14	1
COc1cc(C)c(CN2CCN(S(=O)(=O)c3ccc(Cl)s3)CC2)cc1OC
    -2.1	-3	2	6447	7	32	/
c1ccc(Sc2ncnc3c2oc2ccccc23)nc1
    2.0	-6	-68	9353	5	11	/
O=C(c1ccccc1)N1CCN(CC(O)Cn2ccc3ccccc32)CC1 (stereo unspecified)
    3.3	10	1	6074	3	-1	7
CCCc1nnc(SCC(=O)N2CCCCC2C)n1CCCOC (stereo unspecified)
    3.4	2	-9	3763	-5	5	3
COc1ccc(C(C(=O)NC2CCCC2)N(C(=O)c2snc(C(N)=O)c2N)c2cc(C)ccc2OC)cc1OC (stereo unspecified)
    2.7	7	-7	3681	-6	12	5
CCOC(=O)c1sc2nc(NC(=O)C3CCCCC3)sc2c1C
    -0.2	5	-45	5074	15	8	4
C/C(=N\OCC(=O)N/N=C/c1ccccc1O)c1cccs1
    /	/	-15	6260	/	/	-11
C=C(C)COc1ccc(-c2nc(N)ncc2-c2ccccc2OC)c(O)c1
    -4.8	8	-4	5166	13	9	3
Cc1cc(C)c2c(CC(=O)N3CCCC3)coc2c1
    2.8	-2	-16	3960	8	15	-3
Cc1ccc(NC(=O)c2ccc(=O)n(CC(=O)Nc3c(C)cc(C)cc3C)n2)cc1
    1.4	-1	-11	5376	1	9	7
CC1(C)Cc2nc3sc4c(=O)n(CC(=O)NCc5ccccc5)cnc4c3cc2CO1
    1.9	-3	-53	16709*	-11	1	/
COc1ccc(CC(=O)NN=C(C)c2cccnc2)cc1OC
    0.9	7	/	/	13	0	/
Cc1ccccc1NC(=O)c1ccc(NC(=O)C2CC(=O)OC23CCCCC3)cc1 (stereo unspecified)
    -0.3	2	-17	4480	4	2	3
CCNC(=O)NC(=O)C(C)Sc1nc2ccccc2n1CC(C)C (stereo unspecified)
    2.5	-1	-110	3344	8	6	-2
COc1cc(/C=C/C(=O)OCC(=O)NCc2ccco2)cc(OC)c1OC
    3.1	4	-6	2453	18	-1	0
Cc1cccc(NS(=O)(=O)c2ccccc2)n1
    6.5	8	-27	8847	6	7	-5
CCOCCCNC(=S)NNC(=O)CCn1nc(C)c(Br)c1C
    1.4	-5	-11	24089*	-3	11	6
CC(=O)N1CCN(C(=O)CC2OC(=O)c3ccccc32)CC1 (stereo unspecified)
    -1.5	5	-15	2718	/	/	4
O=c1c2c(nc3c(-c4ccc(Cl)cc4)c[nH]n13)CCC2
    50	18	-27	4279	-1	7	1
O=C(COC(=O)c1ccc(-c2cnc3ccccc3n2)cc1)c1ccccc1
    /	/	-45	9536	/	/	17
COc1ccc(NC(=O)C(=O)c2cn(CC(=O)N3CCCC3)c3ccccc23)cc1OC
    1.3	-3	-15	4613	0	3	21
Nc1cnnc(N/N=C\c2ccccc2)c1Cl
    /	/	-65	6225	/	/	14
CN(C)c1cccc2c(C=NO)ccc(N(C)C)c12
    6.0	4	/	/	6	3	/

The listing continues:
Values in the order: RN4220 kill	Sa ugtP lethal	PrP UTR inh	Autofluor counter	Mtb hypoxia rep	Mtb hypoxia rep growth	BJeLR viability
CN1C2CCC1C(COC(=O)c1ccccc1)C(O)C2 (stereo unspecified)
    0.8	14	-25	3284	4	3	-5
Cc1ccc(C(=O)Nc2nnn(C)n2)cc1
    -0.7	3	-20	9034	4	0	-2
COc1ccc(CC(=O)N/N=C(/C)c2ccco2)cc1
    /	/	-7	2482	/	/	-3
Cc1ccc(S(=O)(=O)/N=C2\C=C(Nc3ccc(O)cc3)C(=O)c3ccccc32)cc1
    68	28	-30	/	5	9	/
COc1ccccc1NS(=O)(=O)c1ccc(C(N)=O)cc1
    2.2	4	-15	3504	7	5	2
O=C(/C(=C/O)N=Nc1cccc(C(F)(F)F)c1)c1ccccc1
    /	/	-6	3240	/	/	0
Clc1ccccc1-c1nnc2n1CCCCC2
    1.9	12	-1	3259	-2	4	-2
CCN(CC)CCCNC(=O)c1oc2ccc(S(=O)(=O)N3CC(C)CC(C)C3)cc2c1C (stereo unspecified)
    0.2	4	-13	3970	5	12	0
COc1ccc(C(=O)COC(=O)c2ccc(NC(=O)c3ccccc3)cc2)cc1
    5.7	0	-13	5599	4	2	2
CN(C)c1ccc(C=NNC(=O)C2COc3ccccc3O2)o1 (stereo unspecified)
    1.8	0	/	/	-5	-7	/
CN1CCN(CC(=O)Nc2c(C(=O)C3CC3)oc3ccccc23)CC1
    1.4	31	-26	22556*	15	6	-7
COC(=O)c1ccc(CSc2nc3scc(-c4cccs4)c3c(=O)[nH]2)o1
    2.9	-9	-34	20323*	3	7	-16
Cc1ccc(S(=O)(=O)NCCC(=O)Nc2ccncc2)cc1C
    7.2	5	-26	6791	2	-7	13
Cc1nc(SCc2c(F)cccc2Cl)c2c(=O)n(C)c(=O)n(C)c2n1
    -12	0	-20	4567	0	9	-19
CCOc1ccccc1N(CC(=O)N1CCC(C(N)=O)CC1)S(=O)(=O)c1ccc(SC)cc1
    2.9	-2	-2	4346	7	1	5
Cc1ccc(-c2cc(C(=O)N3CCCC(C(F)(F)F)C3)c3ccccc3n2)o1 (stereo unspecified)
    3.9	3	-14	7002	5	1	5
O=c1[nH]c(-c2ccccc2)cs1
    3.1	6	-14	10501	2	0	-15
Cc1nnc(SCc2cc(=O)oc3ccc4ccccc4c23)n1Cc1ccccc1
    5.2	2	-28	2271	-5	1	-5
CCOCCCNCc1cn(-c2ccc(F)cc2F)nc1-c1ccccc1C
    5.9	3	-21	4215	-15	-2	19
COc1ccc(S(=O)(=O)N(CC(=O)O)c2ccc(C)cc2)cc1
    1.6	9	16	7086	14	2	1
O=C1CC(N2CCC(c3nc4ccccc4o3)CC2)C(=O)N1c1cc(Cl)cc(Cl)c1 (stereo unspecified)
    4.6	3	-23	22844*	10	3	-15
COc1ccccc1C(=O)COC(=O)Cn1[nH]c(=O)c2ccccc2c1=O
    0.5	5	-7	5259	-5	-7	2
O=C(CCn1cccn1)N1CCCC(N2CCN(c3cccc(Cl)c3)CC2)C1 (stereo unspecified)
    2.3	-3	-17	5288	7	11	-2
O=C1C2CCCN2C(c2ccccc2F)N1c1ccc(Cl)cc1 (stereo unspecified)
    4.0	9	-9	7470	17	11	-10
CCOc1ccc(S(=O)(=O)N2CCCCC2)cc1NC(=O)Cc1cccs1
    /	/	-23	5596	/	/	1
CCOC(=O)c1nn(-c2ccc(C)cc2)c(=O)cc1OCC(=O)Nc1cc(C)ccc1OC
    1.1	0	-14	/	-4	-3	-5
O=C(NN=Cc1ccccc1)c1sccc1OCc1ccc(F)cc1
    21	-2	/	/	13	4	/
Cc1noc(C)c1C(=O)Nc1cccnc1
    2.6	0	-14	9434	-9	6	/
O=C1CC(c2ccccc2)CC(O)=C1C=NCc1ccncc1 (stereo unspecified)
    8.0	4	-16	2808	12	2	10
C/C(CC(C)C)=N\NS(=O)(=O)c1ccc(C)c([N+](=O)[O-])c1
    /	/	1	4628	/	/	-2

Full records, quoted from the list.
Profile of COc1ccccc1C(=O)COC(=O)Cn1[nH]c(=O)c2ccccc2c1=O : RN4220 kill: 0.5; Sa ugtP lethal: 5; PrP UTR inh: -7; Autofluor counter: 5259; Mtb hypoxia rep: -5; Mtb hypoxia rep growth: -7; BJeLR viability: 2
Profile of COc1ccc(C(=O)COC(=O)c2ccc(NC(=O)c3ccccc3)cc2)cc1 : RN4220 kill: 5.7; Sa ugtP lethal: 0; PrP UTR inh: -13; Autofluor counter: 5599; Mtb hypoxia rep: 4; Mtb hypoxia rep growth: 2; BJeLR viability: 2

(cont.)
Values in the order: RN4220 kill	Sa ugtP lethal	PrP UTR inh	Autofluor counter	Mtb hypoxia rep	Mtb hypoxia rep growth	BJeLR viability
COc1ccc(S(=O)(=O)N2CCCC(C(=O)O)C2)cc1 (stereo unspecified)
    -8.8	-5	-20	3468	4	8	-5
COc1ccc(CN2C(=O)C3C4C=CC(C4)C3C2=O)cc1 (stereo unspecified)
    7.5	15	-15	12411	7	12	2
O=C(NCCO)/C(=C\c1cccc([N+](=O)[O-])c1)NC(=O)c1ccco1
    0.3	7	-19	2405	8	-5	-1
Cc1cc(C)c(NC(=O)CSc2nccn2C)c(C)c1
    4.2	2	1	7263	-7	-8	0
CC(=O)Nc1ccccc1NC(=O)C/C(C)=N/NC(=O)c1ccc([N+](=O)[O-])c(Cl)c1
    /	/	7	2322	/	/	6
CCCN(CCC)S(=O)(=O)c1ccc(NC(=O)Cc2cccs2)cc1
    -0.6	2	3	25405*	2	1	7
Cc1ccsc1C(=O)NC1CCCN(Cc2ccc(Cl)cc2)C1 (stereo unspecified)
    -1.8	-2	-6	7077	-1	3	-3
Nc1ccc(C(=O)O)cc1
    4.7&5.0&2.5	-1&-2&-7	3&-21&-15	4287&5817&4536	-3&-1	0&8	3&-10&-8
COC(=O)C1(C)NC(c2ccco2)C2C(=O)N(c3ccc(F)cc3)C(=O)C21 (stereo unspecified)
    1.0	7	-20	4609	17	8	-2
C#Cc1ccc(CN2CCN(Cc3ccsc3)C(CCO)C2)cc1 (stereo unspecified)
    13	3	-21	4556	0	10	8
O=C(c1ccc(F)cc1)c1ccc(N2CCCC2)cc1
    11	7	-67	5779	2	-6	0
CCN(CC)/C(Sc1ccccc1)=C(\C(Cl)=C(Cl)Cl)[N+](=O)[O-]
    13	7	0	2123	15	1	2
CCc1ncc(C)nc1CC
    1.1	-2	-43	5240	/	/	/
CCCCCCCCNC(=O)c1cnccn1
    /	/	-41	10727	/	/	-1
COc1ccccc1N1CCN(S(=O)(=O)c2cccc3nsnc23)CC1
    5.6	10	-22	8045	2	0	-1
COC(=O)N/N=C/c1ccc(OS(=O)(=O)c2ccc(C)cc2)c(OC)c1
    /	/	-7	5546	/	/	0
CCn1c(C)nc2cc(N)ccc21
    3.6	3	-30	4982	-9	3	4
Cc1cccc(C(=O)Oc2ccc3ccc(O)cc3c2)c1
    4.0	1	-18	3938	-9	-9	-3
CCN(c1cccc(C)c1)c1nc2ccsc2c(=O)s1
    -3.5	88*	-20	3666	4	3	-8
Cc1cc(C)nc(NS(=O)(=O)c2ccc(N/C=C\C(=O)c3ccc(Cl)cc3)cc2)n1
    4.5	-7	-29	8834	17	10	-2
CC(C)CCNC(=O)c1ccc(Cl)c(NC(=O)Cc2ccccc2)c1
    3.4	-1	/	/	-6	-2	-6
CCOc1ccc(NC(=S)c2ccc3ccccc3n2)cc1
    -3.2	3	-20	6045	3	8	1
CC1(C)Cc2ccccc2C(/C(C#N)=N/O)=N1
    /	/	-40	4398	/	/	-8
CN(C)S(=O)(=O)N1CCC(Oc2cccc(C(=O)N3CCCCCC3)c2)CC1
    3.4	14	-19	6048	9	-3	-16
COc1ccc(Nc2nc(-c3ccccc3)cs2)cc1
    3.1	3	-171	23305*	6	9	-1
COc1ccc(C(=O)OCC(=O)Nc2cccc(C(C)=O)c2)cc1OC
    4.3	-4	-24	5722	-5	-7	0
COc1ccc(C(=O)O)cc1NC(=S)NC(=O)/C=C/c1ccc(C(C)C)cc1
    12	5	-20	4061	-4	12	-7
Cc1ccc(CNCCc2ccccc2F)cc1
    2.7	6	-5	2337	10	0	3
